Assay outcomes deposited in PubChem by ICCB-Longwood Screening Facility, Harvard Medical School.
GIV-Gai inh – inhibitors of GIV peptide binding to Galpha-i3, primary screen, biochemical, fluorescence polarization, FITC-GIV GBA peptide, rat Galphai3. 0.42% of 210,000 active. percent of control (FP), % (concentration not given with the values). 90 min; active compounds read low; scaled: aluminum fluoride 0%, vehicle 100%. Guanine nucleotide-binding protein G(i) subunit alpha-3 (Rattus norvegicus), P08753;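 active means replicate mean at 85% of control or lower, very high polarization wells dropped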;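 further: wells of about 15 µL received 100 nL stock; the first replicate is given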
Target sequence (P08753 whole entry, looked up): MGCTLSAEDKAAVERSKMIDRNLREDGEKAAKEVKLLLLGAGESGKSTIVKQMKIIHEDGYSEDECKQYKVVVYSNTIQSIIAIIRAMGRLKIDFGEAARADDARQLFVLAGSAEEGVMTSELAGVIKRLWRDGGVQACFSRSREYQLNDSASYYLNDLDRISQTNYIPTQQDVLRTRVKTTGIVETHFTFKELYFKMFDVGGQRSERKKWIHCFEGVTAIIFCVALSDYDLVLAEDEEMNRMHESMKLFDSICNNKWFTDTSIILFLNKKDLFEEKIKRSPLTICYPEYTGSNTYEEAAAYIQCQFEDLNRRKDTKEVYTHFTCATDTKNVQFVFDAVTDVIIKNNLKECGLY
HCMV UL50-53 inh – inhibitors of HCMV UL50-UL53 interaction, biochemical, HTRF; HCMV UL50-UL53 nuclear egress complex (human cytomegalovirus); normalized percent inhibition; inhibition, % (concentration not given with the values); 0.15% of 190,000 active;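 active means both replicates at 50% or more, plus weaker picks with an unusually low signal ratio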;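 further: stock transfer was 100 nL into about 20 µL; 0% = negative control wells and 100% = wells with untagged competitor protein; inactives centre near -12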
Sa growth 42C – S. aureus growth inhibition at 42 and 30 °C, primary screen, LtaS inhibitor project, RN4220, two temperatures. 0.53% of 170,000 active. OD600, 20 h, 42 °C; active compounds read low. relative growth, % (test concentration not listed);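 active means growth at 42 °C up to 50% and 20 or more points under that at 30 °C, or under 10% at both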;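 further: 300 nL library stock went into each well; scaled to the means of positive and negative controls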
Sa growth 42C second temp – second read-out of Sa growth 42C, no call of its own (marks repeat the call); relative growth, %; measured here: growth at 30 °C;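 optical density after 20 h as mean of two plates; 100% = untreated growth and lower means inhibition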
An asterisk follows results filed as active; nt = no result given; & = joins results of further samples. This is a random part of the collection, and some 0.79% of all compounds hit somewhere here.

SMILES	GIV-Gai inh	HCMV UL50-53 inh	Sa growth 42C	Sa growth 42C second temp
COc1cc2c(cc1OC)n(Cc1cccc(C(F)(F)F)c1)c(=O)n1nc(-c3ccccc3)nc21	106	-8	89	80
CC(=O)N1CCc2cc(-c3csc(N)n3)ccc21	nt	-43	103	91
CC(C)c1ccc(S(=O)(=O)CC#N)cc1	102	6	96	85
COc1ccc(CN2CCC(N(C)Cc3ccccc3)CC2)cc1	101	nt	78	90
Nc1nnc(SCC(=O)OCC(=O)Nc2nc(-c3ccccc3)cs2)s1	nt	-7	104	91
CC(=O)Oc1cncc(C(=O)O)c1	104	nt	106	78
COc1ccc(CNc2ncnc3c2nnn3C)cc1	92	nt	90	88
CC(C)CCNS(=O)(=O)c1cc(C(=O)N2CCCC2)cs1	103	-30	nt	nt
COc1ccc(C(=O)Nc2cc(-c3cccc(C)c3)nn2-c2ccccc2)cc1	108	nt	103	94
CN1C(=O)c2cccc3c(Cl)cc(Cl)c1c23	nt	-43	103	94
O=C(NCc1ccc2c(c1)OCO2)C1CC(=O)N(CCc2ccc(Cl)cc2)C1 (stereo unspecified)	105	41	123	92
CCCCCC(=O)N1c2ccccc2NC2=C(C(=O)CC(C)(C)C2)C1c1ccccc1OC (stereo unspecified)	96	-2	nt	nt
Cc1ccc(-c2csc(NC(=O)CC3CCCC3)n2)o1	nt	3	81	83
Cc1noc(C)c1S(=O)(=O)n1cc2c(=O)n(C)c(=O)n(C)c2n1	105	-7	nt	nt
CN(C)S(=O)(=O)c1ccc(C(=O)Oc2ccc(-n3ccnc3)cc2)cc1	nt	-20	94	74
Cc1ccc(NCc2nc3ccccc3s2)cc1	nt	13	78	94
CC(C)(C)S(=O)(=O)Cc1nc(-c2ccc(C(F)(F)F)cc2)cs1	104	-21	101	87
CCc1ccc(C2=NN(CCC(=O)NCCc3ccccc3)C(=O)CC2)cc1	103	nt	91	97
CC(C)CNC(=O)CN1CCN(c2cc(C(=O)O)c3cc(NC(=O)C4CC4)ccc3n2)CC1	102	-35	nt	nt
O=C(O)Cc1csc(-c2ccsc2)n1	nt	-11	87	98
CC1C=CCC2C(=O)N(c3ccc4c(c3)CCC4)C(=O)C12 (stereo unspecified)	97	nt	117	85
Cc1ccc2c(c1)-c1c(ssc1=S)C(C)(C)N2C(=O)C(C)C	nt	-5	100	95
O=C(COC(=O)c1cccc(C(=O)OCC(=O)NC2CC2)n1)NC1CC1	nt	-24	91	90
Cc1ccc(-c2noc(CCC(=O)NC3CCCC(C)C3C)n2)cc1 (stereo unspecified)	105	1	104	83
Cc1ccccc1C(=O)c1cccn1CC(=O)NC(C)c1ccccc1 (stereo unspecified)	99	-5	nt	nt
NC(CC(=O)O)c1cccc(Oc2ccccc2)c1 (stereo unspecified)	nt	-16	114	82
COc1ccc(Nc2c3c(nc4ncnn24)CCC3)cc1OC	102	-12	nt	nt
CCCS(=O)(=O)N1CC(=O)N(c2ccc(C)cc2C)C(C)(C(=O)NC2CCCCCC2)C1 (stereo unspecified)	99	nt	105	106
O=C1NC(=O)C(C(CC(=O)C2CC2)c2ccccc2)C(=O)N1 (stereo unspecified)	nt	2	99	93
COC(=O)C(NC(=O)C12CC3(C)CC(C)(CC(C)(C3)C1)C2)C(C)C (stereo unspecified)	nt	3	118	91
CN(C)C(=O)c1cc(Br)cc2c1OCC2	104	-4	111	89
CCN(CC)S(=O)(=O)c1cc(C)ccc1OC	100	0	97	96
OCCCc1cc(-c2ccccc2)n[nH]1	104	-34	99	89
CCc1ccc2c(c1)C1CC(C)(O2)N(CC)C(=S)N1 (stereo unspecified)	94	4	103	92
CN(Cc1ccccc1)Cc1c(O)ccc2c(=O)c(-c3ccccc3)c(C(F)(F)F)oc12	102	1	93	109
Cc1ccc(C)c(CN2CCCN(Cc3cc(C)ccc3C)S2(=O)=O)c1	107	nt	89	102
COc1ccc(NC(=O)CC2C(=O)N(Cc3ccco3)C(=S)N2CCCN2CCN(c3ccc(F)cc3)CC2)cc1 (stereo unspecified)	107	1	90	33
Cc1cc(C)c2nc(NC(=O)C(C)C)sc2c1	nt	-8	95	89
O=S(=O)(c1cccs1)N1CCN(CCc2ccccc2)CC1	105	-14	100	91
COC(=O)c1nnn(-c2ccc(Br)cc2)c1C(=O)OC	103	1	94	95
Cc1ccsc1C1c2c(C)nn(-c3ccccc3)c2N=C(c2ccccc2O)C1C(=O)O (stereo unspecified)	nt	20	108	99
CN(C1CCCCC1)S(=O)(=O)c1ccc2c(c1)c(=O)c(C(=O)N1CCN(c3ccccc3F)CC1)cn2C	102	-30	89	93
CN(C)c1ccc(/C=C/c2ccncc2)cc1	108	nt	100	99
COC(=O)c1noc(C(=O)c2ccccc2)c1N	106	-98	nt	nt
O=C(Nc1nc2n(n1)C(c1ccccc1)C=C(c1ccccc1)N2)c1ccc(Cl)c([N+](=O)[O-])c1 (stereo unspecified)	108	-40	123	86

Three entries from above, sorted by count of non-hydrogen atoms, descending:
SMILES	GIV-Gai inh	HCMV UL50-53 inh	Sa growth 42C	Sa growth 42C second temp
COC(=O)c1nnn(-c2ccc(Br)cc2)c1C(=O)OC	103	1	94	95
CCc1ccc2c(c1)C1CC(C)(O2)N(CC)C(=S)N1 (stereo unspecified)	94	4	103	92
CN(C)C(=O)c1cc(Br)cc2c1OCC2	104	-4	111	89

Continued.
SMILES	GIV-Gai inh	HCMV UL50-53 inh	Sa growth 42C	Sa growth 42C second temp
COc1ccc(Cl)cc1N(CC(=O)N1CCN(Cc2ccccc2)CC1)S(C)(=O)=O	109	7	105	103
CCCN1CCN(c2cc(C(=O)O)c3cc(NS(=O)(=O)c4ccc(C(C)C)cc4)ccc3n2)CC1	97	-54	nt	nt
Cc1cccc(N2CCN(S(=O)(=O)c3c(C(=O)N4CCC(C)CC4)c(C)n(C)c3C)CC2)c1C	101	nt	97	70
CCOc1ccc(-c2nonc2NC(=O)COc2ccc(C)cc2)cc1C	109	-3	nt	nt
O=C(NC1CC1)c1cc2cc(Cl)ccc2oc1=O	101	-119	100	79
Cc1nn(-c2ccccc2)c2c1nc(CCC(=O)Nc1cccc(Cl)c1)c(=O)n2C	107	-31	nt	nt
Cc1cc(N(C)C)n2nc(C(F)(F)F)c(-c3ccc(F)cc3)c2n1	97	-20	nt	nt
Cc1cc(C)cc(N2CC(c3nc(-c4ccccc4C)no3)CC2=O)c1 (stereo unspecified)	97	nt	105	78
O=C1COc2cc(S(=O)(=O)N3CCCC3C(=O)NCc3ccc4c(c3)OCO4)c(Cl)cc2N1 (stereo unspecified)	105	4	nt	nt
CC(C)CCNC(N)=O	nt	10	101	103
O=C(CCCn1c(=O)c2sccc2n(Cc2c(F)cccc2Cl)c1=O)NCc1ccccc1	106	8	99	100
Cc1noc(C)c1COC(=O)CCc1ccc(S(=O)(=O)N2CCCCC2)cc1	nt	-8	101	97
N#CCCCN1C(=O)C(=C(C#N)C#N)c2ccccc21	98	-31	36	25
COC(=O)N(C)c1ccccc1C(=O)N1CCOCC1	nt	-11	99	82
Cc1cc(=O)[nH]c(NN=C(CC(C)C)CC(C)C)n1	nt	-14	87	93
CC1C2(C)OC(=N)C(C#N)(C(c3ccncc3)O2)C1(C#N)C#N (stereo unspecified)	nt	-53	89	78
CCN1CCN(CCCNC(=O)c2ccc3nc(Cc4ccccc4)oc3c2)CC1	98	nt	114	87
COc1cccc(C(=O)NCC2OCCc3ccccc32)c1 (stereo unspecified)	101	-7	110	96
COC(=O)C1=C(N)OC2=C(C(=O)CCC2)C1c1ccc(Br)cc1 (stereo unspecified)	98	-18	nt	nt
COc1ccc(C2Nn3c(C)nnc3SC2C(=O)N2CCCC2)cc1 (stereo unspecified)	102	8	100	95
C=CCN(CC=C)Cc1nc(N)nc(Nc2ccccc2C)n1	nt	-11	134	105
COc1ccc(N2CCN(C(=O)CSc3nc4ccccc4nc3Cc3ccc(Cl)cc3)CC2)cc1	103	nt	102	90
Cc1nc(-c2ccc(C(=O)Nc3cc(Cl)ccc3C)cc2)no1	107	-20	nt	nt
NC(=O)CP(=O)(c1ccccc1)c1ccccc1	105	-1	108	100
N#C/C(=C/c1cn(-c2ccccc2)nc1-c1cc2ccccc2o1)S(=O)(=O)c1ccccc1	101	nt	119	81
COc1ccc(CCNC(C#N)c2ccco2)cc1OC (stereo unspecified)	100	-18	79	86
COc1ccc(NS(=O)(=O)c2ccccc2)cn1	99	-14	100	94
C=CCOc1ccc(/C=C(\C#N)C(=O)Nc2ncc(Cc3ccc(C)cc3)s2)cc1	100	-30	nt	nt
Cc1ccc(CSC2=Nc3ccccc3C3=NC(CCC(=O)NCCc4ccccc4)C(=O)N23)cc1 (stereo unspecified)	96	nt	73	78
O=C(Cn1ncc2c([nH]c3ccccc32)c1=O)Nc1cccc(C(F)(F)F)c1	101	nt	117	79
COc1ccc(-n2c(=O)[nH]cc(C(=O)N3CCCc4ccccc43)c2=O)cc1	103	-8	113	95
Cc1sc2nc(C)n(/N=C/N(C)C)c(=O)c2c1C	nt	-16	89	96
CCOc1ncnc2ccc(Br)cc12	103	-5	76	69
COC(=O)C1=C(C)N(CC2CCCO2)C(=O)/C1=C\c1cc(C)n(-c2ccc(OC)c(Cl)c2)c1C (stereo unspecified)	104	nt	97	81
CCN(CC)C(=S)SCc1cn2cccnc2n1	96	nt	80	73
Cc1cc(-n2c(C)cc(C(=O)CN3C(=O)NC4(CCCCCC4)C3=O)c2C)no1	nt	1	105	105
O=c1oc(Cl)c(Cl)c2ccccc12	105	-8&-26	nt	nt
O=C(Nc1ccc(F)c(F)c1)c1cc(-c2ccncc2)n[nH]1	102	4	nt	nt
CC(=O)NC1C(=O)N(C)c2c(C)cc(C)cc21 (stereo unspecified)	97	-37	94	84
O=C(/C=C/c1ccc(Br)o1)OCC(=O)N1CCCC1=O	nt	-5	100	97
O=c1c(Cl)c(Cl)cnn1-c1nc2ccccc2[nH]1	nt	-52	82	52
NC(=O)CC1=NC(=O)CS1	nt	-20	89	76
CCOc1ccc2nc(SCCC(=O)Nc3ccccc3)sc2c1	103	nt	103	78
CC1CCC(NC(=O)C2(C)Cn3c(cc4occc43)C(=O)N2CCN2CCCC2)CC1 (stereo unspecified)	102	-25	nt	nt
Cc1ccc(SC(C)C(=O)NCC(C)C)cc1 (stereo unspecified)	102	-9	111	96
c1ccc2c(c1)NCCCS2	nt	-45	79	90
NC(=S)Cc1nnc(N2CCOCC2)n1-c1ccccc1	nt	-5	102	83
CCN1N=C(c2ccccc2)CCC1=O	nt	-2	97	94
OC1CCN(c2cc(C(F)(F)F)nc3cc(Cl)cc(Cl)c23)CC1	95	-19	86	90
CCCCN=C1SCC(c2cc(C)n(Cc3ccco3)c2C)=NN1C	nt	-23	89	86
CCn1c(=O)c2c(n3c(SCC(N)=O)nnc13)-c1ccccc1CC21CCCCC1	98	nt	123	80
O=C(c1ccsc1)N1CCN(C(=O)c2cc(-c3ccccn3)n[nH]2)CC1	99	-9	nt	nt
CN(Cc1ccccc1)C(=O)c1ccc(-n2ccc3ccccc32)s1	102	-1	96	86
O=C1CCC(C(=O)OCC(=O)N2CCOCC2)=NN1	nt	-3	92	90
C=CCn1c(-c2nonc2NC(=O)CC)nc2ccccc21	102	nt	108	92
CCOC(=O)c1[nH]c(CN2CCc3ccccc3C2)c(C(=O)OCC)c1C	nt	-23	97	86
Fc1cccc(Cl)c1CSc1ncn[nH]1	101	-12	nt	nt
CCc1ccc(NC(=O)CN(C)S(=O)(=O)c2ccc3[nH]c(=O)oc3c2)cc1	102	-16	101	92
CC(C)NC(=O)CCc1nc(-c2ccc(C(C)(C)C)cc2)no1	98	nt	115	87
COc1cccc(NC(=O)C2CCCN(S(=O)(=O)c3c(C)[nH]c(=O)[nH]c3=O)C2)c1 (stereo unspecified)	101	1	105	110
Next part
SMILES	GIV-Gai inh	HCMV UL50-53 inh	Sa growth 42C	Sa growth 42C second temp
CCN(C(=O)CCS(=O)(=O)c1cccc2nsnc12)c1cccc(C)c1	104	-82	94	91
C=CCn1c(C)cc(C(=O)Cn2c(C(C)O)nc3ccccc32)c1C (stereo unspecified)	nt	5	96	88
CCOC(=O)c1ccccc1N/C=C/C(=O)C(C)(C)C	98	-13	120	92
Cc1nc2c(c(C)c1CCC(=O)Nc1cccc(C(F)(F)F)c1)c(=O)n(C)c(=O)n2C	102	-26	108	89
CCCCNc1nc2ccccc2[nH]1	nt	-3	99	88
CCCN(C(=O)c1cc2c(s1)-c1c(C)cccc1OC2)c1ccc(OCC)cc1	99	-28	99	86
Cc1ccccc1OCc1nnc(SCC(=O)O)n1CCc1ccccc1	104	-7	134	94

Rewritten as labelled records: 3 of the compounds above.
Cc1nc2c(c(C)c1CCC(=O)Nc1cccc(C(F)(F)F)c1)c(=O)n(C)c(=O)n2C
  GIV-Gai inh: 102
  HCMV UL50-53 inh: -26
  Sa growth 42C: 108
  Sa growth 42C second temp: 89

C=CCn1c(C)cc(C(=O)Cn2c(C(C)O)nc3ccccc32)c1C (stereo unspecified)
  GIV-Gai inh: nt
  HCMV UL50-53 inh: 5
  Sa growth 42C: 96
  Sa growth 42C second temp: 88

CCOC(=O)c1ccccc1N/C=C/C(=O)C(C)(C)C
  GIV-Gai inh: 98
  HCMV UL50-53 inh: -13
  Sa growth 42C: 120
  Sa growth 42C second temp: 92
